TRPV1 PAM: HTS Assay for Compounds that Act as Potentiators of the Vanilloid Receptor 1. Transient receptor potential cation channel subfamily V member 1 (Homo sapiens), Q8NER1. TRPV1-expressing cells, Fluo-8 calcium influx, capsaicin EC20 potentiation; host cell line not named in the record; control for the full effect not named in the record. potentiation, % at 8.33 µM. actives 0.02% (n = 320,000); active means potentiation above 80%; inconclusive means 30% to 80%; inactive means below 30%; note: 0% is about no effect
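Cells expressing TRPV1 were dye-loaded with Fluo-8 and read kinetically: 10 s baseline, 3 min after compound (agonist portion), then 2 min after EC20 capsaicin (allosteric enhancer portion). Calcium-bound dye fluorescence at 480/520 nm.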
PINK1 modulator: A Quantitative High throughput Screen to Identify Chemical Modulators of PINK1 Expression. PINK1 immunofluorescence, high-content cytometry, 24 h. Potency, µM (titrated, usually from 76.6 µM), without a hit: at the highest dose activation (PINK1 increase), actives largely listed as activators. actives 0.2% (n = 410,000); active = well fitted activation curve with a large enough effect; inconclusive = small, poorly fitted or top-dose-only effect; inactive = flat fitted curve, though single readings scatter; cell line not stated here;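 note: potency is the fitted concentration of half-maximal effect; % of control where 0% means no effect; nearly all actives have a fitted effect of over 65% in size; a mitochondrial uncoupler was the plate control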
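Compound titrations (5 concentrations, 24 h) on a stable cell line; DMSO and CCCP controls. Endpoint: fixed-cell PINK1 immunofluorescence with mitochondrial, cell and nuclear markers, scanned by microplate cytometer.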
Menin-MLL FL inh: qHTS Assay for Inhibitors Targeting the Menin-MLL Interaction in MLL Related Leukemias: Competition With Fluorescein Labeled MLL-derived Peptide; Fluorescence polarization, fluorescein-MLL peptide displacement from menin; FP activity change, % at 61.4 µM; 290,000 tested, under 10 active; AID 1766, 2009; inconclusive = falling polarisation curve, or a change in total fluorescence; inactive = total fluorescence flat and polarisation flat or rising; no compound was filed as active; the % refers to the polarisation; negative = inhibition;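 note: % of control where 0% means no effect; inhibitors lower the polarisation; unlabelled MLL peptide was the positive control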
TRPML1 inh: qHTS for Inhibitors of the Human Mucolipin Transient Receptor Potential 1 (TRPML1). Mucolipin-1 (Homo sapiens), Q9GZU1. TRPML1-inducible cells, Ca2+ dye fluorescence, FDSS; stronger effect = lower value; inhibition of EC80 agonist-evoked calcium signal. activity change, negative = inhibition, % (concentration not given with the values). actives 0.02% (n = 390,000). AID 624415, 2012; in the data active means activity change below about -50%; inconclusive means about -30% to -50%; inactive means above about -30%;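 note: stimulus is agonist 54-4 at its EC80 concentration; % is set by controls: 0 for no effect and ±100 for the full control effect; compound concentration not given in the record; the text of the record puts the active cut at -80%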
Target sequence (Q9GZU1 whole entry, looked up): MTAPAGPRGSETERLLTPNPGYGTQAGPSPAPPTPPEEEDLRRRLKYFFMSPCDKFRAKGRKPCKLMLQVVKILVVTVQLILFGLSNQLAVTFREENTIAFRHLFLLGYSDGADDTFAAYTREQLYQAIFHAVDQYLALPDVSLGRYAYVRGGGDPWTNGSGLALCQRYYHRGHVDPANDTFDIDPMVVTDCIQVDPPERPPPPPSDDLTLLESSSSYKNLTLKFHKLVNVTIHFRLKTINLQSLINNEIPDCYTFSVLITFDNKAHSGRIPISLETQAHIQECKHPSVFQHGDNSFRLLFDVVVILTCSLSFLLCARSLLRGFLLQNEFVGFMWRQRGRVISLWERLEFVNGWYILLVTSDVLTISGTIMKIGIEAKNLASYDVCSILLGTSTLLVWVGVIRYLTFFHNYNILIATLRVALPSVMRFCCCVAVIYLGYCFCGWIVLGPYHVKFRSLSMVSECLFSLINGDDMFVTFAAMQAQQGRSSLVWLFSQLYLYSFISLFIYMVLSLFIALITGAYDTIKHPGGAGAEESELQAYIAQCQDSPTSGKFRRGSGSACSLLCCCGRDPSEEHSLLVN
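TRPML1-DL cells, Tet-induced overnight (~16 h, 37 °C) at 1,500 cells/well, were loaded with Ca8 no-wash dye plus quencher for 45-90 min at room temperature. Compounds were pinned during FDSS kinetic reading; agonist 54-4 at EC80 (4 uM final) then added.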
TRPML1 agonist: qHTS for Agonists of the Human Mucolipin Transient Receptor Potential 1 (TRPML1); TRPML1-expressing cells, Ca2+ dye fluorescence, FDSS; host cell line not named in the record; reference of the full effect not given here; actives 0.12% (n = 410,000); activation, % (no concentration beside the values); in the data active = activation above about 50%; inconclusive = about 30% to 50%; inactive = below about 30%; note: 0% is about no effect; the text of the record puts the active cut at 80%
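Cells: TRPML1-DL, 1X Tet inducer, ~16 h at 37 degrees C/5% CO2. Dye: ABD Ca8 no-wash + quencher, 45-90 min RT. Read: 10 s baseline, compound add, 110 s agonist phase; 54-4 EC80 (4uM final), 110 s antagonist phase.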
Sfp inh: qHTS Assay for Inhibitors of Bacillus subtilis Sfp phosphopantetheinyl transferase (PPTase); Biochemical Sfp PPTase activity, qHTS; AID 1490, 2009; Potency, µM, for the others: max response, negative = inhibition, usual class: inhibitors; actives 3.5% (n = 310,000); active = well fitted inhibition curve with a large enough effect; inconclusive = small, poorly fitted or top-dose-only effect, or another doubt; inactive = no such curve, though single readings can be large or run the other way;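 note: the enzyme is Sfp with the accession as filed and its product quenches rhodamine fluorescence; potency is the fitted concentration of half-maximal effect; 0% = enzyme reaction without inhibitor and -100% = no enzyme wells; top concentration of the series not given in the record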
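Reaction rates are the 30-min fluorescence difference (ex 525, em 598 nm) in wells containing 15 nM Sfp, 5 uM rhodamine-CoA and 12.5 uM BHQ-2-YbbR at pH 7.6 with 10 mM MgCl2.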
ClpP mod: qHTS Assay for Activators of ClpP. ATP-dependent Clp protease proteolytic subunit (Bacillus subtilis (strain 168)), P80244. Potency, µM (doses to about 57.5 µM), for inactives: top-dose activity change, negative = active. purified B. subtilis ClpP, FRET peptide cleavage, 20 min. actives 1.9% (n = 340,000). AID 651965, 2013; active = well fitted falling curve with a large enough effect; inconclusive = small, poorly fitted or top-dose-only effect; inactive = no such curve, though single readings can be large or run the other way; note: potency is the fitted concentration of half-maximal effect; the source files actives as falling curves though it sought activators and does not explain the sign; nearly all actives have a fitted effect of over 65% in size; many hits overshoot -100%
Target sequence (P80244 whole entry, looked up): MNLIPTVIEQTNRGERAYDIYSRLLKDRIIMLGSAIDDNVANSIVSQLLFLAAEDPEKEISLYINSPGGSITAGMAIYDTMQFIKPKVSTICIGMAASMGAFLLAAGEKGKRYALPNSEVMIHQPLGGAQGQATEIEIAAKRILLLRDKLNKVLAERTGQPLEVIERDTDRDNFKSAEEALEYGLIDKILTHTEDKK
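FRET quenching reversal measured ClpP activation: 10 microg/mL B. subtilis ClpP at pH 8 with the FRET-FV decapeptide, read at 430 nm after 320 nm excitation. The 20-min minus 0-min signal was scaled between DMSO/no-enzyme wells and ADEP (5.8 microM final).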
* hit, by the source's call; u = inconclusive; x = no result given; [ ] = another dose, or the depositor's remark.

SMILES	TRPV1 PAM	PINK1 modulator	Menin-MLL FL inh	TRPML1 inh	TRPML1 agonist	Sfp inh	ClpP mod
CCN(CC)CCCOc1ccc(Cl)c(Cl)c1	12	0.3%	5.9	0	0.6	3%	-2.9%
Cc1c(Cl)ccc2sc(NC(=O)c3ccc(S(=O)(=O)N4CCCc5ccccc54)cc3)nc12	x	2.2%	x	-14	0.1	x	-0.9%
COc1ccc(C2C3(C#N)C(N)=NC(OC)(OC)C23C#N)cc1 (stereo not drawn)	-4	-0.5%	-3.7	1	0.3	-6%	x
CCOC(=O)C1=C(CSc2nc(C)ccc2C#N)OC(N)=C(C#N)C1c1cccc(OC)c1OC (stereo not drawn)	4	1.4%	u	-3	-0.2	14µM*	16%
CCC(OC(=O)CC1Sc2ccccc2NC1=O)C(=O)NCC1CCCO1 (stereo not drawn)	-10	x	0.1	-9	-0.3	u	-3.0%
CC1Cc2ccccc2N1C(=O)COC(=O)CCc1nc2ccccc2c(=O)[nH]1 (stereo not drawn)	6	2.7%	0.0	-1	-0.5	18%	x
Cc1cc(=O)[nH]c(N2CCN(Cc3ccccc3)CC2)n1	6	-1.8%[38.3 µM]	2.5	2	-0.8	14%	-1.7%
CCc1ccc(-n2nc(C)c3c(C(=O)Nc4cc(C)ccc4C)cc(C)nc32)cc1	x	-0.5%	x	19	-0.8	x	4.9%
CCN(CC(=O)Nc1ccccc1C(F)(F)F)C(=O)c1ccc2c(=O)n3c(nc2c1)CCC3	1	2.0%	x	19	0.5	x	-21%
COc1cc(/C=N/NC(=O)Cc2ccccc2)cc([N+](=O)[O-])c1O	7	3.4%	1.6	-3	-1.4	-2%	-0.1%
COc1ccc(-c2oc3ccc(N4CCOCC4)cc3c2C#Cc2ccc(N)cc2)cc1	x	0.1%	x	8	0.9	x	3.9%
COc1ccc(N2CCN(C(=O)NCc3ccc(C)cc3)CC2)cc1	22	4.2%	-8.2	5	1.5	18%	x
Cc1onc(-c2ccccc2)c1C(=O)NC(=S)NNC(=O)c1ccccc1O	-25	-3.3%	x	3	u	14%	-0.3%
CCOC(=O)CSc1nc(N2CCOCC2)c2c(c1C#N)CC(C)(C)OC2	-16	2.6%	-1.5	12	-0.6	4%	-27%
c1ccc2c(-c3csc(-c4ccncc4)n3)c[nH]c2c1	-1	-0.5%	-0.8	x	x	13%	-0.3%
CCCCc1nc2ccc(F)cc2cc1C	x	3.6%	x	x	-0.8	x	-3.0%
CN[C@@H](C)C(=O)NC[C@H]1O[C@@H](n2cnc3c(=O)[nH]c(N)nc32)[C@H](O)[C@@H]1O	x	0.8%	x	-9	0.0	x	-1.7%
O=C1CSC(c2cccc([N+](=O)[O-])c2)N1CCc1ccccc1 (stereo not drawn)	-3	-0.8%	-3.3	18	0.5	14%	0.4%
Nc1cccc(-c2ccc(CO)o2)c1	7	-1.3%	1.0	-3	0.3	-11%	4.0%
COc1ccc(CCC(=O)O)c(O)c1	-8	0.3%	0.6	7	-0.3	20%	-3.5%
CCc1nn(CC(=O)NCCN2CCN(C)CC2)c(=O)c2cc3c(OC)cccc3n12	-7	-0.1%	2.0	6	4.0	6%	4.6%
COc1ccc(Oc2ncc3nc(-c4ccc(Cl)cc4)c(=O)n(CCC#N)c3n2)cc1	x	-0.4%	-2.1	x	x	11%	x
O=C1NC2(CCCc3ccccc32)C(=O)N1CCOc1ccc(Br)cc1 (stereo not drawn)	0	1.0%	1.0	-2	-0.7	8%	-0.2%
Cc1ccc(/C=N/NC(=O)CN2CCN(Cc3ccccc3Cl)CC2)o1	3	1.2%	2.6	5	-0.8	17%	x
COc1ccc(NC(=O)N2CCC(CO)(CC3CCCCO3)CC2)c(OC)c1 (stereo not drawn)	9	0.0%	16	-7	0.8	13%	x

Remaining list, next part:
SMILES	TRPV1 PAM	PINK1 modulator	Menin-MLL FL inh	TRPML1 inh	TRPML1 agonist	Sfp inh	ClpP mod
Cc1cccc(N2CCN(C(=O)c3ccc(Cl)c(S(=O)(=O)N4CCc5ccccc5C4)c3)CC2)c1C	-9	-1.3%	5.7	-10	0.9	0%	-0.6%
Cc1ccc(NC(=O)c2cccc(C(=O)Nc3ccc(C)cc3C(=O)O)c2)c(C(=O)O)c1	-3	4.9%	-14	4	3.0	23%	x
O=C1C=C(c2cccc3c2sc2ccccc23)C[C@@H](c2ccc(Cl)cc2)C1	-7	0.7%	x	-9	1.4	x	-6.5%
CCc1cc(=O)oc2cc(C)cc(OCC(=O)N3CCC(C(=O)O)CC3)c12	-9	2.3%	1.6	x	x	11%	4.8%
CC(c1ccccc1)C1CC(=O)N(Cc2ccco2)C1=O (stereo not drawn)	-2	1.3%	1.1	-9	-0.4	22µM*	2.6%
C=C(C)COc1ccc(-c2n[nH]c(C)c2Oc2ccccc2OC)c(O)c1	0	3.5%	3.4	-4	1.2	-17%	-5.9%
CCCC1=NN(c2ccc([N+](=O)[O-])cc2)C(=O)/C1=C/N(C)C	-12	0.8%	-2.8	5	-0.3	79µM*	-1.3%
COc1ccc(S(=O)(=O)N(CC(=O)Nc2ccc3c(c2)OCO3)c2ccc(C)cc2)cc1	x	-0.3%	x	5	0.1	x	-1.8%
COc1ccc(C2=CC(c3ccc(F)cc3)n3ncc(C(=O)Nc4ccc(C)cc4)c3N2)cc1 (stereo not drawn)	x	0.1%	x	66	0.4	x	0.1%
CN(C)S(=O)(=O)N(CC(=O)NCCSc1ccc(Cl)cc1)c1ccccc1	x	-0.3%	x	10	-0.3	x	1.5%
COc1ccc(N2CCN(C(=O)CSc3nnc4c(C)cc5ccc(C)c(C)c5n34)CC2)cc1	9	-1.4%	2.0	-21	0.0	7%	-2.1%
CNC(=O)CSCCn1c(SCC(=O)NC)nc2ccccc2c1=O	7	0.8%	1.2	-9	1.0	3%	1.1%
CCc1cccc(C)c1NC(=O)C1=C(C)C(=O)OC12CCC(C)CC2 (stereo not drawn)	x	0.2%	x	-15	-0.1	x	0.9%
Cn1cc(Br)c(C(=O)Nc2ncc(Br)s2)n1	-13	5.3%	-3.6	3	0.3	-6%	u
CCN1CCN(c2c(Cl)cccc2NC(=O)c2cccs2)CC1	-18	0.0%	x	3	-0.1	14%	0.3%
CC(=O)Nc1ccc(S(=O)(=O)N2CCC(=O)Nc3ccccc32)cc1	u	-2.9%	-2.9	10	4.9	9%	x
O=C(c1cnccn1)N1CCN(S(=O)(=O)c2cccc(Cl)c2)CC1	x	-0.9%	x	8	0.5	x	0.3%
CCOc1ccc(CCNS(=O)(=O)c2cn(C)cn2)cc1OCC	3	-1.7%	x	-25	0.5	9%	1.0%
CS(=O)(=O)N(CC(=O)Nc1ccccc1C(=O)N1CCCC1)c1cccc([N+](=O)[O-])c1	12	1.1%	6.2	-16	0.2	17%	-1.5%
COc1ccc(C(NC(=O)CN2C(=O)NC3(CCc4ccccc43)C2=O)c2ccccc2)cc1 (stereo not drawn)	-3	0.8%	x	-3	0.0	x	1.5%
Cc1cccn2c(=O)c(/C=C(\C#N)C(N)=O)c(N3CCN(c4ccccc4)CC3)nc12	-2	3.6%	-9.6	5	1.1	-11%	u
CC(=O)CC[N+](C)(C)C	x	1.9%	x	16	1.6	x	-1.2%
Cc1cc2ncn(CCC(=O)NC3CCCC3)c2cc1C	18	-2.7%	0.2	-6	-0.4	18%	x
COc1cccc(CNC(=O)[C@@H]2CCCN2C(=O)[C@H]2CCCCN2C(=O)c2c(F)cccc2F)c1	x	-0.2%	x	x	-0.8	x	-2.0%
CSc1ccc(CN(C)Cc2cc(=O)oc3c(C)c(C)ccc23)cc1	-2	-1.2%	8.7	15	0.6	-4%	-6.9%

Three compounds from above, showing only PINK1 modulator:
structure	PINK1 modulator
CN(C)S(=O)(=O)N(CC(=O)NCCSc1ccc(Cl)cc1)c1ccccc1	-0.3%
COc1ccc(N2CCN(C(=O)CSc3nnc4c(C)cc5ccc(C)c(C)c5n34)CC2)cc1	-1.4%
CNC(=O)CSCCn1c(SCC(=O)NC)nc2ccccc2c1=O	0.8%

Next section.
SMILES	TRPV1 PAM	PINK1 modulator	Menin-MLL FL inh	TRPML1 inh	TRPML1 agonist	Sfp inh	ClpP mod
S=C(NCc1ccccn1)Nc1cccc(Cl)c1	5	-0.5%	5.7	-7	-0.9	6%	-2.9%
O=C1Cc2cccc3cccc1c23	12	x	4.2	-3	-0.3	5%	22µM*
COc1ccc(S(=O)(=O)N2CCC(C(=O)NCCC(=O)NCc3cccnc3)CC2)cc1	x	-1.0%	x	6	-0.3	x	-3.5%
Cc1nn(C)c(C(=O)Sc2cccc(Cl)c2)c1[N+](=O)[O-]	-11	4.4%	-0.5	17	-0.9	-29%	x
COc1cccc(OC)c1C(=O)Nc1nnc(C)s1	x	2.9%	x	19	1.1	x	-8.8%
Cc1ccc(S(=O)(=O)NC(=O)NC2=NC(C)(C)N(c3ccc(Cl)c(Cl)c3)C(N)=N2)cc1	x	0.2%	x	x	-1.1	x	0.2%
CCN(CC)S(=O)(=O)c1ccc(N2CCOCC2)c(NCC(=O)Nc2ccc(F)cc2)c1	-12	3.5%	-0.9	-5	0.3	23%	x
Cc1cc(-n2c(C)cc(C(=O)CSc3ccc4c(c3)OCCO4)c2C)no1	5	0.6%	3.0	8	1.5	-15%	1.0%
O=C(Nc1ccccc1Oc1cccnc1)C1CCCN(Cc2cccc(Cl)c2)C1 (stereo not drawn)	2	-1.0%	-3.6	2	0.1	5%	2.6%
CCOC(=O)C1CCN(Cc2ccc(OC)cc2OC)CC1	8	0.6%	3.5	-5	-0.5	13%	-2.2%
O=C(c1ccc([N+](=O)[O-])cc1)N1CCN(Cc2ccccc2)CC1	3	-0.3%	0.3	-5	0.8	2%	2.3%
CC(C)(C)c1ccc(CC(=O)N2CCC2(C)C(=O)NS(=O)(=O)c2ccc(Cl)s2)cc1 (stereo not drawn)	x	1.2%	x	x	-0.3	x	1.5%

Assay outcomes (PubChem)
